HNF4A DNA FP: change in binding of human HNF4 alpha to DNA; P41235; HNF4a-FITC DNA binding, fluorescence polarization, 1 h; activity change, % at 10 µM; 360,000 tested, 0.3% active; in the data active = activity change above about 30%, passing the limit was not always enough;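 also: controls were the assay level and a saturating level of protein; the project sought stronger binding though the title names inhibitors; some compounds called inactive have numbers as strong as hits; positive values seem to mean higher polarization but the record does not say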
Target sequence (P41235 whole entry, looked up): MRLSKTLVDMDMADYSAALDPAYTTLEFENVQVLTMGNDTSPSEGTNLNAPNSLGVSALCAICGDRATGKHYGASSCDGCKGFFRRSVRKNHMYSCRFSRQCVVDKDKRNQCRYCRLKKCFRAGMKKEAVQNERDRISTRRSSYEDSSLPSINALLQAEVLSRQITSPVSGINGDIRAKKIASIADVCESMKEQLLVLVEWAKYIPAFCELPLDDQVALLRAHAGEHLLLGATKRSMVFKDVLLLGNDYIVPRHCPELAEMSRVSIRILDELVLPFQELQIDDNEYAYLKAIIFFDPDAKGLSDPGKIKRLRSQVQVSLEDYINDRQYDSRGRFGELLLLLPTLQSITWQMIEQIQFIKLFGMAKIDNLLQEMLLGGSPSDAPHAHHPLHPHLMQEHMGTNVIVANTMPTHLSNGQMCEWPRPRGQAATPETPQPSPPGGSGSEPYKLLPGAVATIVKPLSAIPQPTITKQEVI
AF4-AF9 inh: blocks AF4 peptide binding to human AF9; P42568; AlphaScreen, biotin-AF4 peptide binding to FLAG-AF9; inhibition, % at 10 µM; 350,000 tested, 0.47% active;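 active = every replicate reaching a set inhibition limit, whatever the replicate mean, cut at about 25% in these data; inconclusive = mean inhibition reaches that limit but some replicates miss it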;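 also: 0% = plate neutral control median and 100% = total signal loss; the record names both 10 and 1 µM as test concentration; the first replicate is given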
FGF22 binding: shifts melting point of recombinant human FGF22 | Q9HCT0 | recombinant FGF22 thermal shift, SYPRO orange fluorescence; percent of sucrose octasulfate shift, DMSO zero | calls only at 9.99 µM | 340,000 tested, 1.5% active | AID 651658;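 active = melting point raised past a set limit in the mean and every replicate; inconclusive = no clear call; three in four hits are not shown here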
Target sequence (Q9HCT0 whole entry, looked up): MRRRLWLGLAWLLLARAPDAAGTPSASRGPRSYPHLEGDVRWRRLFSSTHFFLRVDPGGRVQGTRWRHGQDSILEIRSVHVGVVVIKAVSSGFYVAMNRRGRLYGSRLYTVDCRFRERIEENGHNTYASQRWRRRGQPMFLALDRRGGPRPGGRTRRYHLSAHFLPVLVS
ALR H2O2 inh: blocks human ALR sulfhydryl oxidase activity. P55789. purified ALR, DTT oxidation, H2O2 HRP-luminol luminescence. inhibition, % (test concentration not listed). 290,000 tested, 3.8% active;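 active = mean and each replicate at 75% or more; inconclusive = only one of the two met; inactive = neither met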;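 also: stock transfer was 7.5 nL into about 7.5 µL; 0% = neutral wells and 100% = wells with inactivated enzyme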
Target sequence (P55789 whole entry, looked up): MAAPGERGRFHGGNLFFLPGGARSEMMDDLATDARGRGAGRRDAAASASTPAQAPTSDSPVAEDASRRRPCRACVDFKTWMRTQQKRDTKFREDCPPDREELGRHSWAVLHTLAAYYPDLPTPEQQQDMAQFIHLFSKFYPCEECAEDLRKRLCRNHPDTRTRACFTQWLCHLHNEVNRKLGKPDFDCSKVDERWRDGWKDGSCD
rRNA inh HTS: selective bacterial rRNA inhibition in E. coli. E. coli WT GFP vs humanized-ribosome RFP mutants, fluorescence, 24 h; active compounds read low; DMSO median 0, no signal -100. GFP signal change (wild-type ribosome), % (concentration not given with the values). 350,000 tested, 1.6% active;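 active = significant combined selectivity score with lowered wild-type GFP, culture density cut under 30%, mutant RFP and density less affected; inactive = any of these conditions unmet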; also: one replicate is shown; some compounds called inactive have numbers as strong as hits
E coli growth: E. coli growth inhibition. Escherichia coli growth, OD600, 23 h; active compounds read low. OD600 absorbance (test concentration not listed). 330,000 tested, 0.21% active;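 active = OD600 absorbance below the run mean of sample wells minus 3.6 SD, in any replicate, cut at about 0.56 in these data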;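 also: stock transfer was 300 nL into about 60 µL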
Vif A3G: HIV-1 Vif–A3G interaction blockers – biochemical, TR-FRET, GST-Vif 1-94, biotin-A3G peptide, dose response retest, primary screen (AID 1117319) | TR-FRET GST-Vif / biotin-A3G peptide binding; higher % means a stronger effect; test concentration not given here; strong numbers were not always called active | inhibition, %; hits with a dose series show IC50 in µM | 260,000 tested, 0.57% active;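 active = above the screen mean plus three standard deviations and confirmed in dose response; inconclusive = results disagree or hit not tested in dose response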;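 also: Vif residues 1-94 fused to GST binding biotinylated APOBEC3G peptide 110-148; 0% = full assay without inhibitor and 100% = GST in place of GST-Vif; retest series ran down from 100 µM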
rRNA inh HTS OD600: second read-out of rRNA inh HTS, no call of its own (marks repeat the call); OD600 change, %; measured here: OD600 growth;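 optical density of the mix in the first replicate; 0 = DMSO median and -100 = no signal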
rRNA inh HTS RFP: recorded beside rRNA inh HTS, whose call it bears; RFP signal change, %; measured here: RFP humanized mutant strains;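 first replicate; 0 = DMSO median and -100 = no signal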
* = called active by the depositor; i = inactive; ? = inconclusive; . = no result given; & = joins results of further samples. A portion of the library; the hit share may differ from the screen's.

nr	Structure	rRNA inh HTS OD600	AF4-AF9 inh	rRNA inh HTS RFP	rRNA inh HTS	Vif A3G	ALR H2O2 inh	E coli growth	FGF22 binding	HNF4A DNA FP
1	O=C(C1CCCN(S(=O)(=O)c2cccc3nonc23)C1)N1CCC(Cc2ccccc2)CC1 (centres undefined)	.	.	.	.	-3.0%&2.9%	-4.2	0.723	.	1.5
2	CCn1c(/C=C/c2cc(Br)ccc2O)nc2ccccc2c1=O	-20.9	-1.7	2.2	-18.4	1.2%	74.1	0.718	i	-0.8
3	COc1cc(N)c2ncsc2c1	11.0	14.3	2.2	0.1	-3.9%	.	0.671	i	0.0
4	O=C(c1cc(COc2ccc(F)cc2Cl)on1)N1CCC(c2ccncc2)CC1	-40.6	-0.4	-6.2	-39.5	.	.	0.717	i	-12.1
5	Cc1ccc(C(C)C)c(OCC(=O)NNC(=O)C2CSC3(C)CCC(=O)N23)c1 (centres undefined)	-11.1	?	-0.5	-2.7	4.2%	.	0.686	i	-1.6
6	O=C(NC1CCCCC1)C1CCCN1S(=O)(=O)c1cccc2nsnc12 (centres undefined)	.	.	.	.	8.0%	-0.6	0.706	.	1.3
7	CCC(Oc1ccccc1)C(=O)Nc1ccccc1N1CCCCC1 (centres undefined)	6.9	-3.3	-3.3	4.2	0.5%	-5.8	0.737	i	6.0
8	COc1ccc(S(=O)(=O)NCCc2ccco2)cc1OC	-0.5	-3.5	-1.8	7.1	.	-9.9	0.673	i	0.1
9	C[C@H]1CN([C@@H](C)CO)C(=O)c2cccc(NC(=O)Nc3ccc(F)cc3)c2O[C@H]1CN(C)Cc1ccccc1	0.6	-3.6	1.9	-0.4	.	.	.	i	.
10	O=C(CSc1ccc(-c2cccnc2)nn1)N1CCCC1	4.2	1.4	-0.6	6.5	1.3%	-2.3	0.722	.	2.4
11	Cc1ccc(C(C(=O)NC(C)(C)C)N(CCCN2CCOCC2)C(=O)c2ccc(-c3ccccc3)[nH]2)o1 (centres undefined)	10.8	2.3	3.1	9.1	9.5%	.	0.716	i	-6.2
12	CC1(C2CC2)NC(=O)N(CC(=O)N2CCN(c3ccc(F)cc3)CC2)C1=O (centres undefined)	6.4	1.3	-3.2	2.1	1.6%	.	0.676	i	-4.7
13	CCc1ccc(OC(C)C(=O)Nc2ccccc2C(=O)N2CCOCC2)cc1 (centres undefined)	3.1	-8.0	1.7	7.9	.	7.8	0.702	i	3.5
14	COC(=O)c1ccsc1NC(=O)CCc1ccccc1	-28.8	-2.5	-6.7	-30.3	.	-0.5	0.708	i	2.8
15	COc1ccc(Oc2ccccc2C=O)cc1	.	.	.	.	4.2%	-3.8	0.658	.	4.0
16	C[C@H]1CN([C@@H](C)CO)C(=O)c2cccc(NC(=O)NC3CCCCC3)c2O[C@@H]1CN(C)CC1CCCCC1	2.8	6.4	1.0	1.3	.	.	.	i	.
17	Cc1c(NC(=O)COc2ccc(C(C)C)cc2)c(=O)n(-c2ccccc2)n1C	4.2	2.1	-0.6	2.3	-8.6%	-3.4	0.672	i	-2.2
18	O=C(C1=C[C@@H](C2CCCCC2)C[C@@H](OCCCCO)O1)N1CCOCC1	6.4	-1.1&-2.6	-3.7	12.0	-5.8%	-3.6	0.777	i	4.3
19	O=C(NCC1CCCO1)C(c1cccs1)N(C(=O)Cn1nnc(-c2cccs2)n1)C1CCCC1 (centres undefined)	.	.	.	.	0.2%	-6.0	0.698	.	5.5
20	CCNc1oc(-c2ccccc2F)nc1S(=O)(=O)c1ccccc1	.	.	.	.	22.0%	-12.1	0.722	.	-1.2
21	O=C(Cn1c(NCCO)nc2ccccc21)NCCc1ccc(F)cc1	.	.	.	.	3.3%	-23.6	0.726	.	-3.6
22	COc1ccccc1/C=C/CN1CCC(Oc2cc(C(=O)NC3CC3)ccc2OC)CC1	6.9	1.4	1.1	11.0	.	-3.7	0.686	i	-0.8
23	COc1ccc(Cc2nnc(SCC(=O)Nc3ccc(C)cc3)n(N)c2=O)cc1	13.6	?	-0.6	0.5	1.3%	-4.6	0.671	i	-5.9
24	CSc1nc2ncnc(N)c2[nH]1	-0.4	1.4	1.0	8.7	6.8%	5.3	0.693	i	2.1
25	N#C/C(=C/c1ccccc1[N+](=O)[O-])c1nnc2n1CCCCC2	-12.8	1.6	5.7	-9.1	31.2%	-8.7	0.693	i	3.4
26	C=CCC[C@@H](CCCCC)OC(=O)/C=C/[C@@H](O)[C@H](O)C[C@@H](O)CC=C	4.2	-3.9	1.6	14.6	.	.	.	i	-2.3
27	CC1(C(=O)NS(=O)(=O)Cc2cccc(Cl)c2)CCN1C(=O)Cc1ccccc1 (centres undefined)	3.6	-2.8	-0.4	1.6	.	.	.	i	-1.6
28	CN(CCc1cnn(C)c1)Cc1cn[nH]c1-c1ccc(-c2ccccc2)cc1	.	.	.	.	6.0%	2.3	0.679	.	-0.4
29	O=C(NCCN1CCN(C(=O)c2ccc([N+](=O)[O-])cc2)CC1)C(=O)NCc1ccccc1	4.2	-18.8	-1.7	3.1	-1.6%	-3.6	0.636	i	-3.9
30	CC(C)(C)CN1CCNC[C@H]1Cc1ccc(O)cc1	9.7	-2.2	-3.1	6.9	.	43.4	.	i	0.6
31	C=CCNc1nc(NCCOC)c2sc(-c3ccccc3)cc2n1	-79.5	6.2	-17.3	-62.2	.	.	.	i	0.7
32	C[C@@H]1CN([C@H](C)CO)S(=O)(=O)c2ccc(Br)cc2O[C@H]1CN(C)C(=O)CC1CC1	-13.3	-1.8	-1.6	-7.7	.	.	.	i	.
33	CCOc1ccc(CNC(=O)C2CCN(S(=O)(=O)c3ccc4c(c3)CCCC(=O)N4)CC2)cc1	10.8	0.7	-0.5	6.3	.	-5.3	0.685	i	0.7
34	COCCCNc1nc2c(-c3ccc(Cl)cc3)nnn2c2ccccc12	7.4	-17.9	0.9	12.8	-3.2%	-12.7	0.75	i	0.9
35	Cc1noc(C)c1S(=O)(=O)Nc1ccc2c(c1)C(=O)N([C@@H](C)CO)C[C@@H](C)[C@@H](CN(C)C(=O)NC1CCCCC1)OCCCC[C@H](C)O2	-6.1	1.3	1.6	-4.7	.	.	.	i	.
36	CCOc1ccccc1-n1c(C)cc(C=O)c1C	0.4	-2.0	-4.2	-4.7	0.9%	-2.0	0.689	i	2.9

Down the list, from the results shown:
HNF4A DNA FP, compounds 28–34 → -0.4, -3.9, 0.6, 0.7, ., 0.7, 0.9

Next part
nr	Structure	rRNA inh HTS OD600	AF4-AF9 inh	rRNA inh HTS RFP	rRNA inh HTS	Vif A3G	ALR H2O2 inh	E coli growth	FGF22 binding	HNF4A DNA FP
37	COc1cccc(Nc2nc(N)nc(CCl)n2)c1	11.4	5.2	4.7	-3.4	16.9%	9.1	0.663	i	-0.3
38	Cc1ccc(C)c(NC(=O)C2CCCN2S(=O)(=O)c2ccc3c(c2)n(C)c(=O)c(=O)n3C)c1 (centres undefined)	7.5	3.8	-1.9	3.9	21.6%	-8.1	0.786	i	-2.2
39	COC(=O)/C=C1/N/C(=N\c2nc(C)cc(C)n2)N(c2ccc(C)c(C)c2)C1=O	.	.	.	.	8.5%	42.5	0.786	.	2.3
40	COc1ccc(NS(=O)(=O)c2ccc(C)c(C(=O)N3CCCCCCC3)c2)cc1	-10.9	-12.1	3.0	-10.2	0.3%	4.8	0.721	i	-2.6
41	O=C(CCN1CCc2ccccc2C1)Nc1cccc(F)c1	.	.	.	.	-2.1%	.	0.708	.	-3.1
42	CCOC(=O)CCC(NC(=O)c1ccc(CNc2nc3cc(C(F)(F)F)ccc3nc2C(=O)OCC)cc1)C(=O)OCC (centres undefined)	6.6	-0.3	-1.6	2.1	2.9%	.	.	i	-3.6
43	O=S(=O)(c1ccccc1Cl)N1CCC(Cc2ccccc2)CC1	-21.6	-14.5	0.1	-0.6	-5.2%	-17.1	0.672	i	3.5
44	Cc1cc(NC(=O)c2sc(Nc3ccc(F)c(Cl)c3)nc2N)no1	-12.8*	1.2	-2.5*	-22.1*	2.6%	1.0	0.69	i	0.8
45	CC1CCN(C(=O)c2ccc(CNc3c(N4CCCC4)c(=O)c3=O)cc2)CC1	7.6	8.3	-2.1	10.7	5.4%	-0.4	0.665	i	6.7
46	O=C(/C=C/c1ccccc1Cl)c1ccc(O)cc1	-78.8	10.6	-14.3	-56.6	4.4%	-6.6	0.613	i	0.1
47	O=C(NCc1ccccn1)[C@@H]1CCCN1C(=O)[C@@H]1CCCN1C(=O)c1c(F)cccc1F	0.8	-0.8	-0.9	13.1	.	.	.	i	2.1
48	Cc1cc(NC(=O)COC(=O)C2CCC(=O)N2)c([N+](=O)[O-])cc1C (centres undefined)	-0.5	-5.0	-0.9	-1.1	1.0%	-1.3	0.654	i	0.3

Reprinted: compounds 41–42
nr	Structure	rRNA inh HTS OD600	AF4-AF9 inh	rRNA inh HTS RFP	rRNA inh HTS	Vif A3G	ALR H2O2 inh	E coli growth	FGF22 binding	HNF4A DNA FP
41	O=C(CCN1CCc2ccccc2C1)Nc1cccc(F)c1	.	.	.	.	-2.1%	.	0.708	.	-3.1
42	CCOC(=O)CCC(NC(=O)c1ccc(CNc2nc3cc(C(F)(F)F)ccc3nc2C(=O)OCC)cc1)C(=O)OCC (centres undefined)	6.6	-0.3	-1.6	2.1	2.9%	.	.	i	-3.6

Remaining list, next part:
nr	Structure	rRNA inh HTS OD600	AF4-AF9 inh	rRNA inh HTS RFP	rRNA inh HTS	Vif A3G	ALR H2O2 inh	E coli growth	FGF22 binding	HNF4A DNA FP
49	O=C(CSCCO)Nc1ccc(C2CCCCC2)cc1	.	.	.	.	?	-1.0	0.705	.	-5.6
50	O=C(CC1SC(N2CCCCC2)=NC1=O)Nc1cccc(C(=O)Nc2ncccc2O)c1 (centres undefined)	6.5	-29.1	-1.8	1.7	.	48.8	0.695	i	-1.1
51	Cc1ccc(S(=O)(=O)N(CC(=O)N2CCCCCC2)c2ccccc2F)cc1	-2.4	1.0	1.6	-7.6	.	-3.4	.	i	1.0
52	COC(=O)c1cccc(NC(=O)CC2NCCNC2=O)c1 (centres undefined)	3.4	-1.9	-2.9	6.8	-8.9%	-4.8	0.694	i	-2.8
53	CO[C@H]1CN(C)C(=O)c2ccc(NS(=O)(=O)c3ccccc3)cc2OC[C@@H](C)N(Cc2nccs2)C[C@@H]1C	-3.3	1.7	-0.2	1.4	.	.	.	i	.
54	CC(C)c1ccc(C(=O)Nc2nnc(S(=O)(=O)N3CCOCC3)s2)cc1	13.8	1.9	-1.0	4.4	-7.5%	29.9	0.72	i	-0.5
55	CN1CCN(C(=O)C[C@@H]2CC[C@H]3[C@@H](COC[C@H](O)CN3C(=O)Nc3ccc(F)cc3)O2)CC1	-0.8	-2.6	-4.1	0.6	.	.	.	i	.
56	C[C@H](CO)N1C[C@H](C)[C@H](CN(C)C(=O)NC2CCCCC2)Oc2ncc(-c3ccccc3)cc2C1=O	-11.8	-0.5	2.3	-2.4	.	.	.	i	.
57	C[C@@H]1CN([C@H](C)CO)C(=O)c2cc(C#CCN(C)C)cnc2O[C@@H]1CN(C)C(=O)Cc1ccccc1	7.6	-1.4	-1.1	2.2	.	.	.	i	.
58	NC1=NC(=Nc2ccccc2)c2ccccc21	.	.	.	.	-2.4%	-4.7	0.751	.	-3.2
59	NS(=O)(=O)c1ccc(CCNC(=O)c2ccc3ccccc3n2)cc1	-14.7	-1.7	2.8	-20.6	12.3%	7.9	0.649	i	-1.0
60	CCN(c1ccc2c(c1)OCO2)S(=O)(=O)c1cc(Br)cc2c1N(C(=O)C1CC1)CC2	.	.	.	.	9.4%	-5.4	0.708	.	-3.1
61	CCCCOc1ccc(CON(C(C)=O)C(C)=O)cc1Cl	0.2	-2.1	-0.7	2.2	4.6%	.	0.716	i	-1.7

Screening data as filed in PubChem BioAssay.
